Screening data as filed in PubChem.
HIV Env fusion: inhibitors of HIV Env-mediated cell fusion. HeLa-JRFL Env/CEM21 cell fusion, luciferase. inhibition, % at 12.3 µM. 360,000 compounds, 1.1% hits;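 active = mean replicate inhibition score of at least 50 and every replicate individually at or above 50; inconclusive = only one of the two criteria met; inactive = mean below 50 and not all replicates reaching 50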;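 also: 0% = plate neutral controls and 100% = maraviroc near 300 nM; one replicate is shown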
Yeast UUG start: alters start codon recognition fidelity in yeast; S. cerevisiae UUG-firefly luciferase reporter, luminescence/redox ratio; activity score, % at 18.7 µM; 350,000 compounds, 0.13% hits; AID 602363;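 active = replicate mean at a twofold rise or more, about +100% in these data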;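 also: firefly luciferase made from a UUG start codon reports start codon fidelity; reporter light over untreated wells divided by growth signal over untreated wells; some hits fall short of that in this replicate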
CSC inhib: blocks cancer stem cells. cancer stem cell-like cells viability, luminescence. inhibition, % at 7.5 µM. 300,000 compounds, 1.1% hits;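 active = mean at 75% or more and at least half the replicates too; inconclusive = mean and replicates disagree; tested in HMLE shEcad cells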;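 also: 0% = median of negative and 100% = median of positive control wells; the first replicate is given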
PABP FP inh: blocks human PABP binding to poly(A) RNA; P11940; fluorescence polarization; inhibition, % at 35 µM; 290,000 compounds, 1% hits; AID 2014;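 active = 50% or more with normal probe brightness, or confirmed in later tests; inconclusive = above 50% with abnormal brightness, or retests that disagree; inactive = below 50% or failed in later tests; about a fifth of its hits are not listed in these tables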;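 also: calls also rest on retests at 20 µM and on dose response follow-up; controls were probe without protein and protein plus probe with vehicle; some compounds called inactive have numbers as strong as hits; many hits fall short of the cut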
MT1-MMP act inh: MT1-MMP (human) activation inhibition; HT1080 RFP-PRO-GFP cells, GFP/RFP ratio fluorescence, overnight; percent of plate control window, DMSO zero; AID 651647; P50281; GFP/RFP ratio change, % at 20 µM; 360,000 compounds, 0.061% hits;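 active = GFP/RFP ratio change of at least 30% with cell ATP level not reduced by more than half and red fluorescence within 50% of control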; also: strong numbers were not always called active
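Compound: 20 µM single dose, 1% DMSO / System: HT1080 RFP-PRO-GFP cells / Controls: DMSO and RFP-L50D-GFP cell wells / Read-out basis: GFP/RFP fluorescence ratio / Schedule: overnight compound exposure at 37 °C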
eIF4H inh: inhibitors of RNA binding by human eIF4H; Q15056; eIF4H fluorescence polarization binding assay; inhibition, % at 35 µM; 290,000 compounds, 0.94% hits; AID 2012;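 active = 50% or more with normal probe brightness, or confirmed in later tests; inconclusive = above 50% with abnormal brightness, or retests that disagree; inactive = below 50% or failed in later tests; about a fifth of its hits are not listed in these tables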;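 also: calls also rest on retests at 20 µM and on dose response follow-up; 0% = protein and probe with vehicle and 100% = probe without protein; strong numbers were not always called active; many hits fall short of the cut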
Rce1 inh: yeast Ras-converting enzyme inhibition | Q03530 | yeast membranes, quenched prenylated peptide cleavage fluorescence | calls only | 290,000 compounds, 0.27% hits | AID 2563;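 active = fall in fluorescence gain of 50% or more versus controls, with final raw signal at or below 3038400; inconclusive = same 50% fall but final raw signal above 3038400; inactive = fall in fluorescence gain under 50%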;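 also: plate controls were neutral control wells for no effect and wells lacking membranes for full effect; tested at 10 µM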
Target sequence (Q03530 whole entry, looked up): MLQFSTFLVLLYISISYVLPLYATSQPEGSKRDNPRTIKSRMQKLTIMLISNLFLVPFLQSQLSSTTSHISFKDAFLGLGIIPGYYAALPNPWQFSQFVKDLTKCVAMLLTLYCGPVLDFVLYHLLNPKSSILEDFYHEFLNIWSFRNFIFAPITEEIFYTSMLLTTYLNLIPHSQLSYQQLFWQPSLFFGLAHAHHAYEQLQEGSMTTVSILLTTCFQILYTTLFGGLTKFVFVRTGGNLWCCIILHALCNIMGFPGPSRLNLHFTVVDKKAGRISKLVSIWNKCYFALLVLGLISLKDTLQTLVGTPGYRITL
eIF4H inh retest: second read-out of eIF4H inh, no call of its own (marks repeat the call); inhibition, %; compound at 20 µM; confirmation average;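 mean of two retest wells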
PABP FP inh retest: also measured in PABP FP inh; calls as there; inhibition, %; compound at 20 µM; confirmation repeats;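 mean of two retest wells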
MT1-MMP act inh RFP: second read-out of MT1-MMP act inh, no call of its own (marks repeat the call); RFP signal change, %; measured here: RFP expression control read;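 0 = vehicle wells; hits needed this value within 50% of zero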
The depositor's hits bear a star; i = inactive; ? = inconclusive; / = not tested or not shown. The list is partial; the hit share may differ from the screen's.

SMILES	HIV Env fusion	Yeast UUG start	CSC inhib	PABP FP inh	MT1-MMP act inh	MT1-MMP act inh RFP	eIF4H inh	Rce1 inh	others
CCCCc1cc(=O)oc2cc(C)cc(OCC(=O)NCc3cccnc3)c12	22	-12	-10	-7	-3	-2	-11	i
OC1CSc2nc3ccccc3n2C1 (stereo not given)	17	0	-7	0	3	1	-2	i
CCOC(=O)C(Cc1ccnc2ccccc12)=NO	5	-23	/	/	3	-12	/	/
CC(=O)Nc1cccc(C(=O)/C=C/c2ccc(N(C)C)cc2)c1	3	/	6	3	-35	-1	?	i
COc1ccc(C(=O)OC(COc2ccccc2)Cn2ccnc2)cc1 (stereo not given)	/	-11	-9	6	-7	-1	-6	i
O=C(Cn1cnc2c(nnn2Cc2ccccc2)c1=O)NCc1ccccc1Cl	-10	-21	-9	7	10	2	-5	/
CCOC(=O)C1C(=O)NCC1c1ccccc1 (stereo not given)	/	-9	-9	8	-5	2	-5	i
CC(=O)Nc1cc(C(=O)NCc2ccco2)ccc1Sc1ccc(F)cc1	14	/	-3	2	-2	-3	-6	i
CC1CCC2(CC1)NC(=O)N(CC(=O)Nc1ccc3c(c1)CCC3)C2=O (stereo not given)	-10	-2	6	-3	9	10	-4	i
Cc1ccc(NC(=O)C2CCCN(C(=O)NCc3ccccc3)C2)c(C)c1 (stereo not given)	-8	-17	10	-1	2	-1	-4	i
Cc1cc(=O)c2cccc(Br)c2[nH]1	/	/	7	-9	-6	1	0	i
CC(=O)c1ccc(OC2(C)CCN(Cc3csc4ccccc34)C2)cc1 (stereo not given)	6	-8	/	/	1	2	/	/
COc1ccccc1Cn1c(=S)[nH]c2cc(C(=O)NC(C)C)ccc2c1=O	7	-16	-11	4	2	-1	-7	i
COC(=O)C1=C(C)N(CCc2cc(OC)c(OC)c(OC)c2)C(=O)N[C@H]1c1ccc(Br)cc1	/	/	20	-3	/	/	7	i
CC(=O)Oc1cc2c(cc1OC(C)=O)C(=O)CCCC2	-8	-19	/	/	1	-1	/	/
O=C(Nc1ccc(Br)cc1)c1cc2ccccn2n1	-105	-10	3	0	-7	-20	-6	i
Fc1ccc(N2CCN(Cc3cnc(Oc4ccc(Br)cc4)s3)CC2)cc1	28	-20	-4	5	1	2	19	i
Cc1cn([C@H]2C[C@H](O)[C@@H](CNCc3ccc4ncccc4c3)O2)c(=O)[nH]c1=O	15	4	/	/	1	2	/	/
Cc1ccc(N(Cc2cc3ccc(C)cc3[nH]c2=O)S(=O)(=O)c2ccccc2)cc1	9	/	-1	-4	0	-4	-16	i
COc1ccccc1CNC(=O)C(=O)c1cn(CC(=O)N2CCCC2)c2ccccc12	0	-2	/	-2	-1	2	2	i
Cc1cc(C(=O)NCC(c2ccco2)N2CCCC2)c2ccccc2n1 (stereo not given)	-4	-22	/	/	-5	1	/	/
Cc1cc(C)c(S(=O)(=O)N(C)CC(N)=O)c(C)c1	17	-9	-13	11	5	4	4	i
CCCCC(=O)Nc1nc2c(OC)cc([N+](=O)[O-])cc2s1	3	9	2	10	-1	-3	-4	i
CCC1(c2ccc(F)cc2)NC(=O)N(CC(=O)Nc2cc(S(=O)(=O)N(C)C)ccc2Cl)C1=O (stereo not given)	11	/	-6	2	-2	-1	-1	i
CS(=O)(=O)N(CC(=O)O)c1cccc(Cl)c1	-34	3	/	0	-1	1	-11	i
(next part)
SMILES	HIV Env fusion	Yeast UUG start	CSC inhib	PABP FP inh	MT1-MMP act inh	MT1-MMP act inh RFP	eIF4H inh	Rce1 inh	others
Clc1cccc(Oc2ncc(CN3CCOCC3)s2)c1	-10	-17	-9	-1	5	5	8	i
COCCCN1C(=O)C(CC(=O)NCc2cccs2)CC(C(=O)N(C)C)=C1C (stereo not given)	1	-3	/	/	6	6	/	/
O=C(Nc1ccc([N+](=O)[O-])cc1)Nc1ccc(Cl)cc1F	66*	/	-6	8	-36	-41	-1	i
Fc1ccc(C2=Nn3c(nnc3-c3n[nH]c4c3CCC4)SC2)cc1	/	-18	-8	6	22	8	3	i
Nc1nonc1-n1nnc(C(=O)N/N=C/c2ccc(Br)cc2)c1-c1ccc2c(c1)OCO2	7	-13	13	0	1	-2	-10	i
CCCCc1c(C)nn(-c2nnc3c4ccccc4n(CC)c3n2)c1C	-36	-28	51	-4	5	-2	-2	i
Cc1ccc([N+](=O)[O-])cc1-c1[nH]c(-c2ccc(O)c(O)c2)nc1-c1ccccc1	-103	-15	33	-4	-3	-8	7	i
Cc1ccc(S(=O)(=O)N(CC(=O)N2CCOCC2)C2CCCCC2)cc1	-30	-2	-14	-5	-3	2	1	i
CC(C)(C)c1ccc(S(=O)(=O)N2CCNC(=O)C2)cc1	-2	-10	-11	/	-2	0	/	/
CC(=O)c1ccc(S(=O)(=O)N2CCN(C(C)=O)CC2)cc1	-2	3	-12	5	4	2	0	i
COc1ccc(N2CC(C(=O)N/N=C/c3c[nH]c4ccccc34)CC2=O)cc1 (stereo not given)	-7	/	3	-1	10	1	0	i
Oc1nc(-c2ccc(Br)cc2)n2ccncc12	11	-10	-7	-7	3	2	1	i
O=C(NC1CCCc2ccccc21)c1ccc(Cl)nc1 (stereo not given)	/	-21	-8	-2	1	-4	1	i
CCN1CCN(C(=O)C(Cc2ccccc2)NC(=O)c2ccc(Cl)c(S(=O)(=O)N(C)C)c2)CC1 (stereo not given)	-9	-1	-16	/	1	2	/	/
O=[N+]([O-])c1cccc(NC(=S)N2CCc3ccccc32)c1	41	-22	3	2	2	-5	-2	i
CCc1n[nH]c2c1/C(=N\O)CC(c1ccccc1)C2 (stereo not given)	/	-7	21	5	-6	-6	0	i
CCc1nc2ccc(C(=O)Nc3cccc(NS(C)(=O)=O)c3)cn2c1N(CCC(C)C)CCN(C)C	-60	-10	/	/	-5	-2	/	/
O=C(O)CCC(=O)NCC1OCCc2ccccc21 (stereo not given)	/	-13	-10	22	7	3	-15	i
Cc1cc(C)n2nc(SC(C)C(=O)N(C)c3ccccc3)nc2n1 (stereo not given)	-4	-6	-13	/	-3	-3	/	/
CC1CC2(CC(C)(C(=O)CSc3nc4ccccc4s3)OC2=O)C(=O)O1 (stereo not given)	-62	-8	-5	-4	0	5	-2	i
CCCNC(=O)C(Cc1ccc(Cl)cc1)NC(=O)c1ccc(-c2ccccc2)cc1 (stereo not given)	-42	-12	5	/	-2	-2	/	/
COc1cccc(/C=N/NC(=O)c2ccc3nc[nH]c3c2)c1	16	/	-14	-4	1	-2	5	i
CCc1cc2cccc(C)c2nc1SCC(=O)Nc1nonc1C	-2	-10	-4	3	2	6	10	i
C/C(=N\O)c1cccc(Br)c1	-10	/	-2	14	1	1	-3	i
CCC(c1nnc(SCC(=O)Nc2nnc(-c3ccccc3)o2)o1)N(C)C (stereo not given)	-152	-32	10	-4	1	9	-1	i

Overlap with the part before: 2 entries; new compounds follow.
SMILES	HIV Env fusion	Yeast UUG start	CSC inhib	PABP FP inh	MT1-MMP act inh	MT1-MMP act inh RFP	eIF4H inh	Rce1 inh	others
C/C(=N\O)c1cccc(Br)c1	-10	/	-2	14	1	1	-3	i
CCC(c1nnc(SCC(=O)Nc2nnc(-c3ccccc3)o2)o1)N(C)C (stereo not given)	-152	-32	10	-4	1	9	-1	i
CN(c1ccc(C(=O)NCCCn2ccnc2)cc1)S(C)(=O)=O	6	-3	-7	11	-1	-1	-12	i
CO/N=C/C(C(C)=O)C(=O)Nc1ccc(Cl)cc1Cl (stereo not given)	5	3	-9	3	2	0	3	i
CCCOC(=O)N[C@@H]1C(=O)N2C(C(=O)OCCC)=C(C)CS[C@H]12	-175	-3	-7	-3	3	2	-4	i
CC1CCc2sc(C(=O)Nc3ccc(N4CCOCC4)cc3)cc2C1 (stereo not given)	6	/	-8	5	4	-4	-8	i
COc1ccccc1/C=N/Nc1nccnc1Cl	/	-24	9	-1	-5	-2	-3	i
Cc1cccc(C)c1NC(=O)CN1C(=O)COc2ccccc21	9	-15	2	4	-1	-2	-13	i
CC(C)c1ccc(NC(=O)CSc2n[nH]c(=O)n2-c2cccnc2)cc1	1	-5	1	1	2	3	-3	i
CN1C(=O)[C@@H]2[C@@H]3C[C@@H]([C@H]4ON=C(c5ccc(Cl)cc5)[C@@H]34)[C@@H]2C1=O	10	/	7	17	3	3	3	i
COc1ccc(CCNC(=O)C2CC(=O)N(C3CCCCC3)C2)cc1OC (stereo not given)	-16	-5	-1	/	0	2	/	i
O=C(NCCCN1CCN(c2ccccc2F)CC1)C1CCN(S(=O)(=O)N2CCOCC2)CC1	/	-6	-8	-4	5	-3	-2	i
COc1ccccc1N1CCN(c2ccc3ccccc3n2)CC1	-155	-35	0	-4	-2	-4	0	i
COc1cc2c(cc1OC)C1=C(C#N)CCC(=NC(=O)c3ccco3)N1CC2	44	12	-4	12	1	7	6	i
Oc1ccc(N=Nc2n[nH]c(-c3ccc(Br)cc3)n2)cc1	/	-10	46	1	1	-9	-4	i
Cc1cccc(NC(=O)CN2C(=O)c3ccccc3S2(=O)=O)n1	-435	-16	-10	/	-1	3	/	i
CC(C)Cc1nc2oc3c(=O)[nH]cnc3c2c2c1CCC2	-2	/	-4	13	-1	-4	-5	i
CC(C)Cn1c(NCCN(C)C)nc2c1c(=O)[nH]c(=O)n2C	/	-9	-5	-1	10	5	-5	i
Nc1nc(NC2CCCCC2)nc(NCCO)c1[N+](=O)[O-]	-76	-7	7	8	-4	4	2	i
CS(=O)(=O)c1ncc(CO)n1Cc1ccccc1	-7	/	/	6	1	5	-1	i
O=C(CCCN1C(=O)/C(=C/c2cccc(Br)c2)SC1=S)Nc1ccccn1	-28	-8	44	4	-3	-10	-11	i
O=C(Nc1ccccc1N1CCOCC1)C1Cc2ccccc2CN1C(=O)c1ccco1 (stereo not given)	-6	-13	-15	3	5	5	3	i
O=C1C=C(c2ccccc2)C(=O)N1Nc1ccccc1	/	/	52	-2	1	5	-11	i
CCOC(=O)c1nnn(-c2nonc2-n2cccc2)c1-c1cccc([N+](=O)[O-])c1	-13	/	1	-12	-3	1	-4	i
Cc1cc(C[n+]2ccsc2N)c2ncccc2c1	-8	-19	-3	-1	3	3	-3	i
Cc1cc(F)ccc1NC(=O)c1cccnc1	-1	-6	-9	2	0	1	2	i
CCOC(=O)[C@H]1[C@H]2COc3ccc(Br)cc3[C@@H]2N2C(=O)c3cc(OC)c(OC)cc3NC(=O)[C@@]12C	6	-4	-23	/	-13	-7	/	/
Next part.
SMILES	HIV Env fusion	Yeast UUG start	CSC inhib	PABP FP inh	MT1-MMP act inh	MT1-MMP act inh RFP	eIF4H inh	Rce1 inh	others
Cn1nc(C(C)(C)C)cc1N1C(=O)CCC1(C)C(=O)Nc1ccc2c(c1)OCCO2 (stereo not given)	4	-7	/	/	5	3	/	/
Cc1cc(NC(=O)CSc2nnnn2-c2ccc(C)c(Cl)c2)no1	1	0	-21	-5	1	1	7	i
COc1ccccc1OCc1nc(-c2cccc([N+](=O)[O-])c2)no1	2	/	9	-7	3	1	-6	i
COc1ccc(NC(C)C(=O)N/N=C/c2ccc([N+](=O)[O-])s2)cc1 (stereo not given)	11	/	2	6	-6	-8	-1	i
Cc1nnc(SCC(N)=O)n1CC1CCCO1 (stereo not given)	2	-7	1	-11	5	11	11	i
CCCCCCn1c(CN2CCN(C(=O)c3ccco3)CC2)nc2c1c(=O)n(C)c(=O)n2C	-54	11	7	9	0	3	11	i
O=C(Cc1ccccc1)NNC(=O)Nc1ccc(Cl)c(Cl)c1	15	/	9	96	-4	-3	2	i	eIF4H inh retest=-6;PABP FP inh retest=1
